Bioassay records: PubChem BioAssay, National Center for Advancing Translational Sciences (NCATS)
HPGD inh = blocks human HPGD enzyme activity | AID 894 | Potency, µM, for the others: at the highest dose activity change, negative = inhibition, hits mostly inhibitors | P15428 | 150,000 compounds, 4.3% hits | purified HPGD, NADH fluorescence kinetic, PGE2 substrate; active = well fitted inhibition curve with a large enough effect (not every such curve was filed as active); inconclusive = small, poorly fitted or top-dose-only effect, or another doubt; inactive = no such curve, though single readings can be large or run the other way;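 further: top concentration of the series not given in the record; plate controls included wells without enzyme; inactives centre near -10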
Target sequence (P15428 whole entry, looked up): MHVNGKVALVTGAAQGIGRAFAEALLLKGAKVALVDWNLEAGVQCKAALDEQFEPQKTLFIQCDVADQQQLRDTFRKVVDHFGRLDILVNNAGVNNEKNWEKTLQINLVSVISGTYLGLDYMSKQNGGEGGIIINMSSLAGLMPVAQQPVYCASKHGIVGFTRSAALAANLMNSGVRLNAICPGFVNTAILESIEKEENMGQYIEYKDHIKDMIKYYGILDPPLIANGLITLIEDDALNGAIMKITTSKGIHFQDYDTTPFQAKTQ
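20 nM HPGD preincubated 15 min at room temperature with compound in 50 mM Tris-HCl pH 8, 0.01% Tween 20. Started with 1 mM NAD+ and 30 uM prostaglandin E2; NADH fluorescence (360/450 nm) read 5 times over 30-s intervals, last minus first.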
An asterisk follows results filed as active; ? = inconclusive; & = joins results of further samples. On the % scale 0 is the no-effect control and ±100 the full control effect; potency means the concentration at half of the fitted maximal effect.

compound	HPGD inh
CNC(=O)c1ccccc1NC(=O)c1c(O)c2c([nH]c1=O)CCCC2	-6%
Cc1ccc(C(=O)NNC(=S)Nc2cccc(Cl)c2Cl)cc1[N+](=O)[O-]	11µM*
c1ccc2c(c1)CCN(c1nc3cc4c(cc3s1)OCO4)C2	32µM*
Cc1cccc(C)c1NC(=O)C(C)c1ccc(-c2ccccc2)c(F)c1 (configuration not stated)	-5%
CC(C)CCNC(=O)CN(Cc1ccc2c(c1)OCO2)C(=O)Cn1nnc(-c2cccs2)n1	-23%
Cc1cc(C)n2nc(C(=O)Oc3ccc4c(c3)OCO4)nc2n1	-9%
CN(Cc1ccccc1)C(=O)c1ccccc1Br	?
O=C(CSc1ccccc1C(=O)O)NCc1ccco1	-9%
COc1ccc(/C=N/Nc2ncnc3c2[nH]c2ccccc23)c(OC)c1OC	-20%
COc1ccccc1/C=C(/CC(=O)NCc1ccc2c(c1)OCO2)c1nc2ccccc2s1	-13%
O=C1C[C@H]2CCCCC(=O)N3CC[C@@H](C1)[C@@H]23	-10%
Cc1nn2c(-n3ccnc3C)c3c(nc2c1-c1ccccc1)CCC3	0%
CN1CCN(c2ccc(NC(=O)c3cccc(OCc4ccccc4)c3)cc2)CC1	-5%
COCCCNC(=S)NNC(=S)Nc1ccc(F)cc1F	?
COc1ccc2cc(Br)ccc2c1CC(=O)NC(C)(C)C	-13%
CCOc1ccc(N2Nc3n[nH]c(N)c3N2)cc1	-1%
CC(C)(Sc1cc(C(C)(C)C)c(O)c(C(C)(C)C)c1)Sc1cc(C(C)(C)C)c(O)c(C(C)(C)C)c1	-8%&-2%&-3%
O=C1CC(Nc2ccccc2)C(=O)N1CCc1ccccc1 (configuration not stated)	2%
Cc1cc(C)c2oc(C(=O)Nc3ccc(S(=O)(=O)N4CCC(C)CC4)cc3)cc(=O)c2c1	-17%
C(=N\n1cnnc1)/c1ccccc1OCCOc1ccccc1	-6%
CCN(CC)C(=O)C(=O)N/N=C/c1cccs1	-24%
O=C(NCCCc1ccccc1)c1cccc([N+](=O)[O-])c1	?
CSc1ccc(-c2nnn(Cc3ccc(Br)cc3)n2)cc1	-14%
CCOC(=O)C(C)(C)Sc1ncnc2nc[nH]c12	-12%
O=C(COc1ccc(Cl)cc1)NCCSCc1ccccc1Cl	-7%

7 compounds already listed, sorted by the number in HPGD inh, descending:
SMILES,HPGD inh
O=C1CC(Nc2ccccc2)C(=O)N1CCc1ccccc1 (configuration not stated),2%
Cc1nn2c(-n3ccnc3C)c3c(nc2c1-c1ccccc1)CCC3,0%
Cc1cc(C)n2nc(C(=O)Oc3ccc4c(c3)OCO4)nc2n1,-9%
CCOC(=O)C(C)(C)Sc1ncnc2nc[nH]c12,-12%
COc1ccc(/C=N/Nc2ncnc3c2[nH]c2ccccc23)c(OC)c1OC,-20%
CC(C)CCNC(=O)CN(Cc1ccc2c(c1)OCO2)C(=O)Cn1nnc(-c2cccs2)n1,-23%
CCN(CC)C(=O)C(=O)N/N=C/c1cccs1,-24%

Next part.
compound	HPGD inh
O=C(O)C1OC(O)C(O)C(O)C1O (configuration not stated)	2%
CCOC(=O)c1ccc(S(=O)(=O)NNC(=O)COc2cccc(C)c2)cc1	-1%
CCOc1cc(N2C(=O)CC3CS(=O)(=O)CC32)c(OCC)cc1NC(=O)c1ccccc1 (configuration not stated)	-14%
CCN(CC)CCCN(Cc1cc2cc(OC)c(OC)cc2[nH]c1=O)C(=O)Nc1ccccc1	?
CCOC(=O)C1CCCN(c2nc3ccccc3nc2C(C#N)C(=O)OC(C)C)C1 (configuration not stated)	-17%
COC(=O)c1nc(N)sc1-c1ccc(OC)cc1	-6%
Cc1cccc(N2CCN(C(=O)c3cnn4c(C(F)F)cc(-c5ccccc5)nc34)CC2)c1C	-16%
CC(=O)c1ccc(NC(=O)CSc2nnc(Cc3cccn3C)n2-c2ccc(F)cc2)cc1	1%
Cc1ccc(-c2[nH]nc3c2C(c2ccccc2OC(=O)N2CCOCC2)C(C#N)=C(N)O3)cc1 (configuration not stated)	-9%
Clc1ccc(-c2nc(Cc3ccccc3Cl)no2)cc1	-20%
CCN1CCN(CC(O)COc2ccc(Cl)cc2)CC1 (configuration not stated)	-13%
O=C(NCCN1C(=O)S/C(=C\c2cccnc2)C1=O)c1cccc(OC(F)F)c1	-13%
CCOC(=O)c1c(NC(=S)NCCc2ccccc2)sc2c1CC(C(C)C)OC2 (configuration not stated)	-9%
C=CCn1c(C(C)NC(=O)COC)nc2ccccc21 (configuration not stated)	0%
O=C(NC1CCCCC1)C(c1ccccn1)N(C(=O)Cc1cccs1)c1ccc(Cl)cc1 (configuration not stated)	-10%
O=c1cnc2cnc(N3CCOCC3)nc2n1Cc1ccc(F)cc1	?
O=C(O)c1[nH]c2ccccc2c1NS(=O)(=O)Cc1ccccc1	?
COCCCN(C(=O)Nc1ccccc1)C(C)c1ccncc1 (configuration not stated)	-5%
Fc1ccc(C(c2nnnn2Cc2ccco2)N2CCN(C3CCCCC3)CC2)cc1 (configuration not stated)	-3%
Cc1ccccc1Cc1c(C)nc2c(C(=O)NCc3ccc4c(c3)OCO4)cnn2c1C	?
Cc1cccn2cc(CCNS(=O)(=O)c3ccc([N+](=O)[O-])cc3)nc12	1%
O=C(CSc1nc2ncccc2[nH]1)Nc1ccc2c(c1)OCCO2	-12%
C=CCn1c(SCc2cc(=O)n3cc(C)ccc3n2)nnc1-c1ccc(F)cc1	-13%
O=C(CSCc1ccccc1)Nc1ccc(F)c(F)c1	-19%
COc1ccc(C2(C(=O)NC3CCCCC3)CCOCC2)cc1OC	-5%

Ordered by SMILES length (largest number first): five of the compounds above.
compound	HPGD inh
Cc1cccc(N2CCN(C(=O)c3cnn4c(C(F)F)cc(-c5ccccc5)nc34)CC2)c1C	-16%
C=CCn1c(SCc2cc(=O)n3cc(C)ccc3n2)nnc1-c1ccc(F)cc1	-13%
CCOC(=O)c1ccc(S(=O)(=O)NNC(=O)COc2cccc(C)c2)cc1	-1%
COc1ccc(C2(C(=O)NC3CCCCC3)CCOCC2)cc1OC	-5%
C=CCn1c(C(C)NC(=O)COC)nc2ccccc21 (configuration not stated)	0%

Next records
SMILES	HPGD inh
CCn1c(CCNC(=O)c2ccc(F)cc2)nc2ccccc21	-13%
Cc1ccc(-c2noc(C3CCN(C(=O)Nc4ccc(C#N)cc4)CC3)n2)o1	-5%
COc1ccc(C(=O)NN(c2ccccc2)c2ccccc2)cc1	-11%
Cc1ccc(C)c(CN2C(=O)C3CCCN3c3ccc(C#N)cc32)c1 (configuration not stated)	-20%
CCOC(=O)N1CCN(C(=O)c2noc(C(C)C)c2[N+](=O)[O-])CC1	4%
CCOC(=O)Nc1c(O)ccc2oc(C)c(-c3ccccc3)c12	-17%
COc1ccc(C(=O)/C=C/Nc2ccc([N+](=O)[O-])cc2C)c(OC)c1	-7%
OC(COC(c1ccccc1)c1ccccc1)CN1CCc2ccccc2C1 (configuration not stated)	-18%
Cc1ccc(-c2nnc(SCC(=O)N/N=C/c3cccs3)n2-c2ccc(C)cc2)cc1	-12%
CS[C@@H](CC(=O)O)C(=O)O	-11%
CC(=O)Nc1sc2c(c1C#N)CCCC2	-9%
CCC(Sc1nc(C)cc(=O)[nH]1)C(=O)Nc1nc2c(s1)CCCC2 (configuration not stated)	-6%
CSc1nnc(-c2cccc(C)c2)n1N	-14%
COc1cc(/C=N/NC(=O)C(Cc2c[nH]c3ccccc23)NC(=O)OCC(C)C)cc([N+](=O)[O-])c1O (configuration not stated)	-12%
COc1ccc([N+](=O)[O-])cc1NC(=O)CCN1CCN(CCO)CC1	-9%
COc1cc(C(=O)OC2CC[C@]3(C)C4CCC5[C@]6(O)CC(O)[C@]7(O)C(CN8CC(C)CCC8[C@]7(C)O)[C@]6(O)C[C@@]53O[C@]24O)cc(OC)c1OC (some centres not stated)	-4%
COc1ccc(-c2cn(/N=C/c3ccc(Cl)cc3Cl)c(N)n2)cc1	-9%
C(=N\n1cncn1)/c1ccc(N2CCOCC2)cc1	?
O=C(NC(=S)Nc1nc2ccccc2s1)c1ccco1	-24%
COc1ccc(S(=O)(=O)NCCSc2ccccc2)cc1OC	6%
CCCCC(C(=O)NCCC(C)C)N(CCCN1CCOCC1)C(=O)c1snc(C(N)=O)c1N (configuration not stated)	-28%
Brc1cccc(-c2nnc3sc(CN4CCCCC4)cn23)c1	-11%
O=C(CSc1nnc(-c2ccccc2)c(-c2ccccc2)n1)NCc1ccco1	-24%
COc1ccccc1NC(=O)CC(c1ccc(OC(C)C)cc1)c1ccccc1OC (configuration not stated)	?
CCN(CC)S(=O)(=O)c1cc(NC(=O)CSc2nc3c(cc2C#N)C(=O)CC(C)(C)C3)ccc1C	-7%
O=S(=O)(c1ccccc1)N1CCN(C(=S)Nc2ccc(F)cc2)CC1	-9%
Cc1ccc(F)cc1NC(=O)C12CC3CC(C1)CC(n1cnc([N+](=O)[O-])n1)(C3)C2	1%
CN(CP(=O)(O)CCc1ccccc1)S(C)(=O)=O	0%
O=C(Nc1ccccc1)ON=C1CCCC1	-17%
CC(=O)Oc1ccc(C2(c3ccc(OC(C)=O)cc3)C(=O)Nc3ccccc32)cc1	-2%
Cc1nn(-c2ccccc2)c(C)c1/C=N/Nc1nc2ccccc2[nH]1	?
NC(=O)c1ccccc1OCC(=O)NS(=O)(=O)c1ccccc1	-14%
COc1ccc(NC(C)=O)cc1NC(=O)CN1CCN(c2ccccn2)CC1	-15%
COc1ccccc1OCc1ccc(C(=O)NCCN(C)C)o1	-13%
O=c1c2c3n(c(=S)nc2[nH]n1-c1ccccc1)CCCCC3	-8%
CN(C)C(=O)C(=O)c1cccn1-c1ccccc1C#N	4%
COC(=O)[C@@H]1C[C@@]2(O)[C@@H](O)[C@@H](O)[C@@H](O)C[C@H]2N1CC(c1ccccc1)c1ccccc1	-7%
CC(C)CCNC(=O)C(c1ccco1)N(Cc1cccs1)C(=O)Cn1nnc2ccccc21 (configuration not stated)	-7%
CCOc1ccc(N2C(=O)/C(=C/c3ccco3)N(C)C2=S)cc1	0%
COc1cc(/C=N/NC(=O)Cc2ccccc2)ccc1Oc1ccc([N+](=O)[O-])cc1[N+](=O)[O-]	-20%
c1coc(-c2nc(-c3ccncc3)no2)c1	-19%
CCCCCCCCCSc1n[nH]c(N)n1	-3%
COc1ccccc1NC(=O)C1CCCN(c2nc(C)cc(C)n2)C1 (configuration not stated)	-11%
CCOc1ccc(NC(=O)N2CCC(n3nnc4cc(C)ccc43)CC2)cc1	-7%
CCn1c(CNC(=O)C(C)(C)C)nc2ccccc21	-8%
O=C(O)CCSc1nc2ccccc2c(=O)[nH]1	-5%
CC(CN(C)C)CN1c2ccccc2Sc2ccccc21 (configuration not stated)	-4%
CC1c2[nH]c3ccccc3c2CCN1C(=O)Nc1ccccc1 (configuration not stated)	-15%
Cc1noc2c1C(c1ccc(N(C)C)cc1)C1=C(CC(C)(C)CC1=O)N2 (configuration not stated)	-17%
COc1ccc(/C=N/Nc2ncc(C(F)(F)F)cc2Cl)cc1OC	?

(cont.)
SMILES	HPGD inh
Cc1ccc(C)c(NC(=O)CCC(=O)NNC(=O)C(c2ccccc2)c2ccccc2)c1	-6%
CCC(=O)N1N=C(c2ccccc2)CC1c1ccc([N+](=O)[O-])cc1 (configuration not stated)	-12%
O=C(CSc1nnc(COc2ccc(F)cc2)o1)N1c2ccccc2CCc2ccccc21	-14%
CCOC(=O)C1CCN(C(=O)c2oc3ccc(S(=O)(=O)N4CC(C)CC(C)C4)cc3c2C)CC1 (configuration not stated)	-8%
O=C1CCCc2nn(-c3ccccc3)nc21	-19%
CC1(C)OC(=O)C(=NNc2ccc(Br)cc2)C(=O)O1	-15%
O=C1CCCN1CCCNc1ncnc2c1[nH]c1ccccc12	?
Cc1cnc(NC(=O)CCCSc2nc3ccccc3s2)s1	-5%
COc1ccc(NC(=O)c2cccnc2Nc2ccccc2)cc1	-19%
c1ccc(-c2cc3c(NCC4COc5ccccc5O4)ncnc3s2)cc1 (configuration not stated)	?
O=C(Nc1ccc(-n2ccnc2P(=O)(O)c2ccccc2)cc1)c1ccccc1Br	?
FC(F)Oc1ccccc1NC(=S)Nc1cccc(Cl)c1Cl	-11%
Cc1ccc(S(=O)(=O)N[C@H](C(=O)O)C(C)C)cc1	0%
COc1ccc(/C=C2\CCCC3C2=NN(C(=O)c2ccco2)C3c2ccc(OC)c(OC)c2)cc1OC (configuration not stated)	?
Nc1ccc2c(c1)ncn2CCCn1cnc2cc(N)ccc21	-11%
COc1cc(NC(=S)NC(=O)CC(C)C)ccc1NC(=O)c1cc2ccccc2o1	?
CCOC(=O)CSc1nc2ccccc2c(=O)[nH]1	-17%
O=C(c1cc(C(F)(F)F)cc(C(F)(F)F)c1)N1CCC2(CC1)CCN(c1ncccn1)CC2	-4%
O=C(COC(=O)C12CC3CC(CC(C3)C1)C2)NCCCc1ccccc1	-11%
CC(=O)c1c(O)cc(=O)n(-c2ccccc2)c1-c1ccc(C)cc1	-6%
Cn1c(=O)c2c(nc(N3CCOCC3)n2Cc2c(F)cccc2Cl)n(C)c1=O	-6%
CCCn1c(SCC(=O)Nc2sc(C)c(C)c2C(=O)OC)nc2c1c(=O)n(C)c(=O)n2C	-1%
Nc1n[nH]c(-c2ccccc2[N+](=O)[O-])n1	-12%
Cc1ccc2oc(-c3ccco3)nc2c1	?
CC(=O)c1cccc(NC(=O)CC2SC(N3CCCCC3)=NC2=O)c1 (configuration not stated)	-8%
N#C/C(=C\N1CCOCC1)c1ccccc1	-16%
Cn1c(=O)[nH]c(=O)c2c1ncn2CCN1CCOCC1	3%
CCCCC1=CC2=CC(=O)C(C)(OC(=O)CC)C(=O)C2=CN1Cc1ccc2c(c1)OCO2 (configuration not stated)	-2%

Some of the compounds tested (hit frequency here may not be typical).
